KCNQ2 inh: KCNQ2 potassium channel inhibitors, primary screen, cell-based, CHO-K1, FluxOR thallium flux, B-score (AID 2156); O88943; actives 1.1% (n = 310,000); B-score at 10 µM; 20 min; active compounds read low; only compounds with negative scores are shown here; some inactives read as strong as hits;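 active = fluorescence ratio B-score at most minus 3 library SDs, with starting brightness B-score within 2 library SDs, cut at about -5.5 in these data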
Target sequence (O88943 whole entry, looked up): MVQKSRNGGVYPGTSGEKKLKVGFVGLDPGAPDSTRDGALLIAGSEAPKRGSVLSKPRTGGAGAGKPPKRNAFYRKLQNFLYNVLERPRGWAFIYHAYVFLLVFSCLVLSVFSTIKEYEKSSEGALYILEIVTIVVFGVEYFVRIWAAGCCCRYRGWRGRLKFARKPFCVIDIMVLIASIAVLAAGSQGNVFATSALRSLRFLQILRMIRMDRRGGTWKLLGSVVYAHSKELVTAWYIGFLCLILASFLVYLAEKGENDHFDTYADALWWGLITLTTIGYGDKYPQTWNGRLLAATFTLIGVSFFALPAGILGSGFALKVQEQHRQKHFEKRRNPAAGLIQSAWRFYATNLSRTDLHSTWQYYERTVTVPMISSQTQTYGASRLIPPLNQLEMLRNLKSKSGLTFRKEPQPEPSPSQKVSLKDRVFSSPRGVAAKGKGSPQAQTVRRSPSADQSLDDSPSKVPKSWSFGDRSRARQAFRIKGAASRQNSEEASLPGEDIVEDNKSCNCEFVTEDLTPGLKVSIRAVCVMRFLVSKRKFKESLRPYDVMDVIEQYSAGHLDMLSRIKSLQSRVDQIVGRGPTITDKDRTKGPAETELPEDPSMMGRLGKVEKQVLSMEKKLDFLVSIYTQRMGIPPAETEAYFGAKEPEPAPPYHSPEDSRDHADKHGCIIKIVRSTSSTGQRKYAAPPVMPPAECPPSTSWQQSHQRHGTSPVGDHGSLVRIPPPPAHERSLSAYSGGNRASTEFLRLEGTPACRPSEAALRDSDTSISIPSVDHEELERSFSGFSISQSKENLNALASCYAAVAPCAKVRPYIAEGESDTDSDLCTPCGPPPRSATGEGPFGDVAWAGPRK
KCNQ2 inh baseline: second read-out of KCNQ2 inh, no call of its own (marks repeat the call); B-score; measured here: initial fluorescence intensity artifact check;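 brightness before thallium and not channel activity; 0 = typical well and far values either way flag optical interference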
Numbers without * were called inactive; i = inactive.

SMILES | KCNQ2 inh | KCNQ2 inh baseline
CCn1c(=O)cc(SCC(=O)N2CCN(C3CCCCC3)CC2)c2ccccc21 | i | 0.15
CCC(=O)N(Cc1c(C)nn(-c2ccccc2)c1Cl)c1ccc(Cl)cc1 | i | 0.28
Cc1ccc(N2CC(C(=O)Nc3ccc4c(c3)OCO4)CC2=O)cc1 (configuration not stated) | i | -0.5
Cc1oc(/C=N/NC(=O)CC2(C)OCCO2)cc1Br | i | -0.63
CC[C@H](C)/C=C/C1=CC2=C(Cl)C(=O)[C@@]3(C)OC(=O)C(C(=O)[C@H](C)[C@@H](C)O)=C3C2=CO1 | i | 2.5
CCOc1cc(C2C3=C(CCCC3=O)N(CC(=O)O)C3=C2C(=O)CCC3)ccc1OC | i | 1.3
CCN(CC)CC(=O)Nc1c(C)cc(C(C)(C)C)cc1C | i | 1.4
COc1ccccc1-n1c(C)nnc1SCC(=O)Nc1cc(C)cc(C)c1 | i | 0.17
O=C(Cn1cnc2c(nnn2Cc2ccc(Cl)cc2)c1=O)NCC1CCCO1 (configuration not stated) | i | -0.65
CCCCN(CC)C(=O)Cn1c(=O)sc2ccccc21 | i | -0.52
CN1CCN(CC(=O)N2c3ccccc3C(C)(c3ccccc3)CC2(C)C)CC1 (configuration not stated) | i | -0.34
CC(=O)Nc1nc(-c2ccc3c(c2)CCN3S(C)(=O)=O)cs1 | i | -2.7
O=C(Nc1nnc(SCC(=O)N2CCCC2)s1)C1CC(=O)N(c2ccc(F)cc2)C1 (configuration not stated) | i | -1.2
CCOc1ccccc1NC(=O)N1CCC(NC(=O)c2cccc(C)c2)CC1 | i | -0.76
Cc1cccc(N2CCN(C(=O)CNC(=O)c3cccc([N+](=O)[O-])c3)CC2)c1C | i | -1.1
COc1ccc(CC(=O)OCC(=O)Nc2ccc(N3CCOCC3)cc2)cc1 | i | 0.45
O=C(CSc1cccc[n+]1[O-])c1cc2ccccc2o1 | i | -0.14
COc1ccc(S(=O)(=O)N2CCOCC2)cc1NC(=O)CN(C)Cc1c(F)cccc1Cl | i | 1.5
O=C(Nc1cccc([N+](=O)[O-])c1)c1cccc(C(=O)Nc2cccc([N+](=O)[O-])c2)c1 | i | 0.05
CC1(C)CC(=O)c2cc(C(=O)N3CCCC(C)(C)C3)c(=O)n(-c3ccccc3)c2C1 | i | 1.5
O=C(Cc1cccs1)Nc1ccc(NC(=O)c2ccco2)cc1 | i | -0.49
O=C1C(=O)c2ccccc2C(O)=C1CCCCl | i | -0.83
Cn1c(SCC(=O)NNC(=O)Cc2ccccc2)nnc1-c1ccc(Cl)cc1 | i | -1.1
CCOc1ccc(CCNC(=O)CCc2c(C)nc3ncnn3c2C)cc1OCC | i | 0.14
Fc1ccc(/C=N/NC(=S)NCCc2ccccc2)cc1F | i | -0.04
Fc1ccc(-c2ccc(NCCN3CCOCC3)nn2)cc1 | i | -3.6
CCC1C(C#N)=C(SCC(N)=O)NC2=C1C(=O)CC(C)(C)C2 (configuration not stated) | i | -0.04
COc1ccc(-c2nn(-c3ccccc3)cc2/C=C/C(=O)N2CCN(c3ccccn3)CC2)cc1 | i | 0.01
Cc1cccc(OCC(O)CN2CCN(S(=O)(=O)c3ccc(C)cc3C)CC2)c1 (configuration not stated) | i | 0.77
CC1=C(C(=O)NC2CCCc3c2cnn3-c2ccc(F)cc2F)OCCO1 (configuration not stated) | i | 0.26
N#Cc1sc2nc(-c3ccccc3)cc(-c3ccco3)c2c1N | i | 1.9
COc1cc(/C=C2\SC(=Nc3ccc(O)cc3)NC2=O)cc(OC)c1O | i | 5.1
CC1CC(C)CN(S(=O)(=O)c2cc(C(=O)O)c(Cl)s2)C1 (configuration not stated) | i | 0.21
O=S(=O)(NCC1COc2ccccc2O1)c1ccc2ccccc2c1 (configuration not stated) | i | 0.8
CS(=O)(=O)Nc1ccc(C2=NN(C(=O)c3ccco3)C(c3ccccc3F)C2)cc1 (configuration not stated) | i | -1
O=c1c2c3c(sc2nc2n1CCCC2)CCCC3 | i | 0.91
CC(=O)NC(CCS(C)(=O)=O)C(=O)Nc1ccc(F)cc1Cl (configuration not stated) | i | 0.9
CN1CCN(C(=O)c2cc(C(C)(C)C)cc(C(C)(C)C)c2)CC1 | i | 0.02
CCOC(=O)C1CCN(c2c(C(=O)c3ccccc3)cnc3ccc(CC)cc23)CC1 | -7.2* | -1.3*
CCOc1ccccc1C(=O)Nc1nncs1 | i | -0.75
N/C(=N\OC(=O)CN1C(=O)c2ccccc2C1=O)c1ccc(Cl)cc1 | i | 0.81
Cc1[nH]n(-c2ccccc2)c(=O)c1C(c1cccc([N+](=O)[O-])c1O)c1c(C)[nH]n(-c2ccccc2)c1=O | i | -0.31
CCc1ccc(CNC(=O)CCc2nnc(Cc3cccc(C(F)(F)F)c3)o2)nc1 | i | 1.4
CC(C)c1ccc(C(=O)Nc2ccc(N3CCOCC3)cc2)cc1 | i | 2.2
O=C(NNc1ccc([N+](=O)[O-])cc1)Nc1ccccc1 | i | -1.2
Cn1cc(S(=O)(=O)N2CCOCC2)cc1C(=O)NCCc1ccccc1 | i | -0.46
COc1ccc(CN(C)C(=O)c2ccc(NC(=O)CC3SC(N4CCCC4)=NC3=O)cc2)c(OC)c1 (configuration not stated) | i | 0.8
CC(=O)N1CCc2cc(S(=O)(=O)CCC(=O)NCc3ccco3)ccc21 | i | -0.35
COc1ccccc1Cc1nc2ccccc2n1S(=O)(=O)c1ccc(Cl)cc1 | i | 4.1
COc1ccc(C(CNC(=O)c2ccc(S(=O)(=O)Nc3ccc(F)cc3)cc2)N(C)C)cc1 (configuration not stated) | i | -0.31
COc1cc(/C=C2/C(=N)N3OC(C)=CC3=NC2=O)ccc1OCCOc1ccc(C)cc1 | i | 0.13
Cc1c(C(=O)O)sc2ncnc(N3CCCCC3C)c12 (configuration not stated) | i | 0.7
Cc1cc(NC(=O)CSc2ccc3nnc(-c4ccc(F)cc4)n3n2)no1 | i | -1
CCOC(=O)Cc1nn(Cc2nc(-c3ccc(C)cc3)cs2)c(=O)c2ccccc12 | i | 1.7
Cc1ccc(-n2c(CNc3ccc(C)c(Cl)c3)n[nH]c2=S)cc1 | i | -0.74
O=C(c1cccc(C(=O)N2CCN(c3ccc(F)cc3)CC2)c1)N1CCN(c2ccc(F)cc2)CC1 | -6* | 0.26*
O=C(NCC1CCCO1)C1CCN(S(=O)(=O)Cc2ccccc2)CC1 (configuration not stated) | i | 0.12
COc1cccc(-c2nc(-c3ccccc3)no2)c1 | i | -0.78
O=C(NC1CCCCC1)N(Cc1ccc(F)cc1)Cc1nc2ccccc2c(=O)[nH]1 | i | 2.6
CCOC(=O)c1c(C)n(C)c2ccc(OC)c(NC(=O)CN3CCC4(CC3)OCCO4)c12 | i | 0.57

Grouped by structure: the entries above containing an aryl methoxy group
SMILES | KCNQ2 inh | KCNQ2 inh baseline
CCOc1cc(C2C3=C(CCCC3=O)N(CC(=O)O)C3=C2C(=O)CCC3)ccc1OC | i | 1.3
COc1ccccc1-n1c(C)nnc1SCC(=O)Nc1cc(C)cc(C)c1 | i | 0.17
COc1ccc(CC(=O)OCC(=O)Nc2ccc(N3CCOCC3)cc2)cc1 | i | 0.45
COc1ccc(S(=O)(=O)N2CCOCC2)cc1NC(=O)CN(C)Cc1c(F)cccc1Cl | i | 1.5
COc1ccc(-c2nn(-c3ccccc3)cc2/C=C/C(=O)N2CCN(c3ccccn3)CC2)cc1 | i | 0.01
COc1cc(/C=C2\SC(=Nc3ccc(O)cc3)NC2=O)cc(OC)c1O | i | 5.1
COc1ccc(CN(C)C(=O)c2ccc(NC(=O)CC3SC(N4CCCC4)=NC3=O)cc2)c(OC)c1 (configuration not stated) | i | 0.8
COc1ccccc1Cc1nc2ccccc2n1S(=O)(=O)c1ccc(Cl)cc1 | i | 4.1
COc1ccc(C(CNC(=O)c2ccc(S(=O)(=O)Nc3ccc(F)cc3)cc2)N(C)C)cc1 (configuration not stated) | i | -0.31
COc1cc(/C=C2/C(=N)N3OC(C)=CC3=NC2=O)ccc1OCCOc1ccc(C)cc1 | i | 0.13
COc1cccc(-c2nc(-c3ccccc3)no2)c1 | i | -0.78
CCOC(=O)c1c(C)n(C)c2ccc(OC)c(NC(=O)CN3CCC4(CC3)OCCO4)c12 | i | 0.57

The list goes on:
SMILES | KCNQ2 inh | KCNQ2 inh baseline
COc1cccc(CN2CCNC(=O)C2CC(=O)NCCCn2ccnc2)c1 (configuration not stated) | i | 0.82
COC(=O)C1=C(C)N(C)C(=S)NC1c1cc(OC)ccc1OC (configuration not stated) | i | 2.1
COc1ccc(CCN(C)C(=O)CNC(=O)c2ccc3c(c2)OCO3)cc1OC | i | 0.6
O=C1CS/C(=N/N=C/c2ccco2)N1Cc1ccc(F)cc1 | i | -0.72
CCS(=O)(=O)c1nc2ccccc2n1Cc1ccccc1Cl | i | 1.8
CCN(CC(=O)Nc1ccc(OC)cc1)C(=O)CSCC(=O)Nc1ccc(C)cc1 | i | -1.9
Cc1c(NC(=O)c2cc(-c3ccccc3O)on2)c(=O)n(-c2ccccc2)n1C | i | 1.1
COc1ccccc1Nc1nc(N)nc(CSCCO)n1 | i | 3.3
CC(=O)Nc1ccc(S(=O)(=O)Nc2nc3ccccc3nc2Nc2ccc(N)cc2)cc1 | i | -1.8
COc1ccc(NC(=O)CN(C)C(=O)c2cc(-c3cccs3)nn2-c2ccccc2)cc1 | i | -2.5
O=C(COc1ccc(F)cc1)Nc1ccc(S(=O)(=O)Nc2ncccn2)cc1 | i | -0.89
CN(Cc1ccccc1)C(=O)CN1C(=O)c2ccccc2C1=O | i | 0.56
COc1ccccc1N1CCN(C2CCCN(C(=O)CCC(C)=O)C2)CC1 (configuration not stated) | i | 1.4
CC(C)(C)NC(=O)CN(Cc1ccc2c(c1)OCO2)C(=O)CNS(=O)(=O)c1ccc(F)cc1 | i | 3.3
CC12c3ccccc3C(c3ccccc31)C1C(=O)N(Cc3cccnc3)C(=O)[C@H]12 (some centres not stated) | i | 1.3
CCOC(=O)c1oc2ccccc2c1NC(=O)COc1ccc(F)cc1 | i | 0.43
COc1cccc(Nc2cc(N3CCOCC3)c3nonc3c2[N+](=O)[O-])c1 | i | 0.15
Cc1nnc(NC(=O)c2ccccc2F)s1 | i | 0.37
O=C(N/N=C/c1cc([N+](=O)[O-])ccc1O)Nc1ccccc1 | i | -0.69
COc1ccc2cc3cc(C(=O)N4CCN(C5CCCCC5)CC4)oc3nc2c1 | i | 2.5
COC(=O)[C@]1(S(=O)(=O)c2ccccc2)C[C@@H]2ON=C(c3ccc(OC)cc3)[C@@H]2C1 | i | 1.6
CC(C)CC(NC(=O)c1ccco1)C(=O)Nc1ccc2c(c1)OCCO2 (configuration not stated) | i | -1
CC(C)CNC(=S)NNC(=O)c1csc2c1CCC(C)C2 (configuration not stated) | i | -0.95
Cc1cc(C)cc(SCc2noc(C(=O)NC(C)C)c2C(=O)O)c1 | i | 0.76
CC(C)(C)C(=O)Nc1nnc(CSCc2ccccc2F)s1 | i | -0.52
COc1ccc(CCNc2c3ccccc3nc3ccccc23)cc1OC | i | -2.3
COC(=O)c1ccc(/C=N/N2CCN(Cc3ccccc3Cl)CC2)cc1 | i | -0.97
CCCn1nnnc1NCc1cc(Br)ccc1OC | i | 0.6
COC(=O)c1ccccc1N(C)S(=O)(=O)c1cc2c3c(c1)CCC(=O)N3CCC2 | i | -0.16
COC(=O)c1ccccc1NC(=O)CSc1nnc(C(C)NC(=O)c2ccc(Cl)cc2Cl)n1C (configuration not stated) | i | -0.22
COc1ccc(NC(=O)CN2CCN(C(=O)C3CCCO3)CC2)c(OC)c1 (configuration not stated) | i | -1.3
CC(=O)Nc1ccc(C2C(=O)c3ccccc3C2=O)cc1 | i | -0.12
Cc1ccc(-n2cccn2)c([C@@H]2C[C@H]3CN(C)C(=O)[C@]34CCCN24)c1 | i | 0.6
CC(NC(=O)COc1ccc(Br)cc1)C1CCCO1 (configuration not stated) | i | -0.84
CCOC(=O)C1CCCN(Cc2nc(N)nc(Nc3ccc(OC)cc3)n2)C1 (configuration not stated) | i | -2.1
CCN(CC)S(=O)(=O)c1ccc(NC(=O)COc2nc3ccccc3nc2N2CCOCC2)cc1 | i | 0.19
CCc1ccc(OCC(O)Cn2c(N3CCCCC3)nc3c2c(=O)[nH]c(=O)n3C)cc1 (configuration not stated) | i | -0.02
CCn1ccnc1CN1CCc2c([nH]c3ccccc23)C1C(C)(C)C (configuration not stated) | i | 0.71
COc1ccccc1C(=O)Nc1ccnn1C1CCN(Cc2cnc(N(C)C)s2)CC1 | i | -0.03
COc1ccc(CN(C(=O)CO/N=C/c2ccccc2)c2ccccc2C(=O)O)cc1 | i | 0.63
CN(C)C(CNC(=O)c1cc2ccccc2oc1=O)c1ccccc1 (configuration not stated) | i | -2.1
Cc1ccc(-c2nc3ncccc3o2)cc1NC(=O)C(C)C | i | 1.6
COc1ccccc1CNS(=O)(=O)c1ccc2c(c1)CCCN2C(C)=O | i | -0.21
CC(C)Oc1ccc(C2c3c(oc4ccccc4c3=O)C(=O)N2CCCN2CCOCC2)cc1 (configuration not stated) | i | -1.9
CCN(CC)c1ccc(C2N(C(=O)N3CCOCC3)CCN2S(=O)(=O)c2ccc(C)cc2)cc1 (configuration not stated) | i | 0.11
O=C(CCn1nc(-c2ccc(Cl)cc2)ccc1=O)N1CCN(c2ccccc2)CC1 | i | 0.85
Cc1cc(Cl)c(S(=O)(=O)N/N=C/c2ccc3c(c2)OCO3)c(Cl)c1 | i | -1.5
CCN1CCN(CCNC(=O)c2ccc(/C=C3\Sc4ccccc4N(Cc4ccccc4F)C3=O)cc2)CC1 | i | 0.96

Molecules above that have a cyano group:
SMILES | KCNQ2 inh | KCNQ2 inh baseline
CCC1C(C#N)=C(SCC(N)=O)NC2=C1C(=O)CC(C)(C)C2 (configuration not stated) | i | -0.04
N#Cc1sc2nc(-c3ccccc3)cc(-c3ccco3)c2c1N | i | 1.9

Source: PubChem (Johns Hopkins Ion Channel Center)

Only part of the results is shown. The share of hits here may be higher or lower than overall.
